Vif A3G: HIV-1 Vif–A3G interaction blockers – biochemical, TR-FRET, GST-Vif 1-94, biotin-A3G peptide, dose response retest, primary screen (AID 1117319). inhibition, %; hits with a dose series show IC50 in µM. actives 0.57% (n = 260,000). TR-FRET GST-Vif / biotin-A3G peptide binding; higher % means a stronger effect; test concentration not given here; strong numbers were not always called active;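 active means above the screen mean plus three standard deviations and confirmed in dose response; inconclusive means results disagree or hit not tested in dose response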;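 further: Vif residues 1-94 fused to GST binding biotinylated APOBEC3G peptide 110-148; 0% = full assay without inhibitor and 100% = GST in place of GST-Vif; retest series ran down from 100 µM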
Ecoli growth: blocks Escherichia coli growth | AID 1053175 | OD600 absorbance (concentration not given with the values) | actives 0.21% (n = 330,000) | OD600, 23 h; hits give low values;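 active means OD600 absorbance below the run mean of sample wells minus 3.6 SD, in any replicate, cut at about 0.56 in these data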;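 further: stock transfer was 300 nL into about 60 µL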
Bfl-1 A1 inh: inhibitors of the anti-apoptotic protein A1, read as caspase activation; MEF A1-2A-BIM cells, Caspase-Glo 3/7 luminescence, 3 h; percent of clofoctol response, vehicle zero; caspase activation, % (concentration not given with the values); actives 0.066% (n = 330,000);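 active means over half of replicate activation scores above 10%, or exactly half above 10 with the replicate mean above 10; inconclusive means replicate mean below 10 yet half the replicates above 10; inactive means over half of replicates below 10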;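 further: wells of about 30 µL received 50 nL stock; many hits fall short of the cut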
Beta2AR agonist: human beta-2 adrenergic receptor agonism by FAP. actives 0.43% (n = 340,000). Am2.2-beta2AR cells, FAP receptor internalization, flow cytometry; reference of the scale not given here. AID 504454. P07550. response, % (test concentration not listed);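 active means response above a set limit, near 3 SD of response in nonfluorescent compounds, cut at about 42% in these data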;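 further: stock transfer was 100 nL into about 11 µL; a reference agonist was the positive control; negative values mostly stem from fluorescent compounds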
Target sequence (P07550 whole entry, looked up): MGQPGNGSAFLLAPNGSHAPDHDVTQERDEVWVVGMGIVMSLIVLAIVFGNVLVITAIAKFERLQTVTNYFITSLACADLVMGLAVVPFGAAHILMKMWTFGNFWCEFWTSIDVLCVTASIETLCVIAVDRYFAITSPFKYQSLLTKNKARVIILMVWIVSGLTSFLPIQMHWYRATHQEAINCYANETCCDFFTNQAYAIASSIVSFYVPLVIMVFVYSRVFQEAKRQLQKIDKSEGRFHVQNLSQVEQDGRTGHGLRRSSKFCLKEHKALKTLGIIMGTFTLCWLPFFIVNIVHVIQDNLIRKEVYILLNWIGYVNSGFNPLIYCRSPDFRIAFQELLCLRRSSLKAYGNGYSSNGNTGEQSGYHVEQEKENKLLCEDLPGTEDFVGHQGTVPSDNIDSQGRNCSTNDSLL
UCH37 inh: inhibitors of human deubiquitinating enzyme UCH37 | Q9Y5K5 | purified proteasome/UCH37, Ub-AMC cleavage fluorescence | inhibition, % (concentration not given with the values) | actives 0.33% (n = 330,000);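 active means mean of two replicates above 20%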;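 further: 0% = compound-free wells with enzyme and 100% = wells lacking proteasome; stock transfer was 100 nL into about 20 µL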
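Assay system: Proteasome-bound UCH37. Buffer or medium: pH 7.4 Tris-HCl (50 mM) with ovalbumin, ATP-MgCl2, DTT. Incubation: 30 min preincubation with enzyme, 25 min cleavage at room temperature. Measured by: fluorescence, ex 355 nm, em 460 nm. Read-out basis: percent inhibition. Control set: wells without proteasome as full block, compound-free enzyme plus substrate as uninhibited.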
LANA-H2A inh: blocks KSHV LANA binding to histone H2A/H2B; inhibition, % (test concentration not listed); Q9QR71; cell-free LANA-H2A/H2B peptide, fluorescence polarization; actives 0.6% (n = 320,000); in the data active means inhibition mostly above about 10%, no sharp cut-off; inactive means mostly below about 6.7%;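 further: stock transfer was 7.5 nL into about 10 µL; 0% = median of vehicle wells and 100% = median of positive control wells; one replicate is shown; the record names a cut of 25% in any replicate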
HNF4A DNA FP: change in binding of human HNF4 alpha to DNA; AID 1224865; activity change, % at 10 µM; P41235; actives 0.3% (n = 360,000); HNF4a-FITC DNA binding, fluorescence polarization, 1 h; in the data active means activity change above about 30%, passing the limit was not always enough;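 further: controls were the assay level and a saturating level of protein; the project sought stronger binding though the title names inhibitors; some compounds called inactive have numbers as strong as hits; positive values seem to mean higher polarization but the record does not say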
Target sequence (P41235 whole entry, looked up): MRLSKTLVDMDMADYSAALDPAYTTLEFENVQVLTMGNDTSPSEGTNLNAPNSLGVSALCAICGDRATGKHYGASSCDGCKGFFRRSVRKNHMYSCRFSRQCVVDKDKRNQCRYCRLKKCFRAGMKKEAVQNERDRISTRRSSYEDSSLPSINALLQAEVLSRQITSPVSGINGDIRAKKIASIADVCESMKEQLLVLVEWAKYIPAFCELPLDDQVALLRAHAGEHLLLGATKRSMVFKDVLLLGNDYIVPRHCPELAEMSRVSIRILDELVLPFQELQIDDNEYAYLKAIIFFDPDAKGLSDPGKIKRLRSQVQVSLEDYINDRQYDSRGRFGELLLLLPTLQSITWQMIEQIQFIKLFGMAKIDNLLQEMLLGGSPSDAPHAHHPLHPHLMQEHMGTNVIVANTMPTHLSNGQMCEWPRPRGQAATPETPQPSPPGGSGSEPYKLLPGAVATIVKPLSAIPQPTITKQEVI
The depositor's hits bear a star; ? = inconclusive; . = not tested or not shown; & = joins results of further samples.

SMILES	Vif A3G	Ecoli growth	Bfl-1 A1 inh	Beta2AR agonist	UCH37 inh	LANA-H2A inh	HNF4A DNA FP
CC1=C(C(=O)OCC2CCCO2)C(c2ccccc2Cl)NC(=O)N1 (stereo unspecified)	8%	0.68	-0.3	-18	0.0	5.2	-2.4
CCCOP(=O)(c1ccc(N(C)C)cc1)C(O)c1c(Cl)cccc1Cl (stereo unspecified)	-7%	0.65	0.8	-2	2.7	-1.5	1.1
CCOc1ccc(N2C(=O)C3=C(C(c4ccc(Cl)cc4)=NCCN3)C2c2cccnc2)cc1 (stereo unspecified)	1%	0.73	0.2	-12	8.8	4.9	1.0
CCC1(CC)Cc2ccccc2-c2[nH]c(=S)[nH]c(=O)c21	.	0.61	-0.1	2	1.1	-2.2	-5.1
CN(c1cccc2cccnc12)S(=O)(=O)c1ccccc1	.	0.67	2.2	-2	1.8	-3.9	0.9
CC12CCC(C(=Nc3ccc(N=C4C(=O)C5(C)CCC4C5(C)C)cc3)C1=O)C2(C)C	?	0.68	0.3	.	4.6	-0.2	.
N#Cc1cccc(NC(=O)Cn2cnc(S(=O)(=O)N3CCCCC3)c2)c1	.	0.64	0.5	5	2.0	-3.4	-0.4
Cc1cccc(NC(=O)CCS(=O)(=O)c2cccc3nonc23)c1C	.	0.69	-0.4	9	3.0	1.9	-1.2
CCc1nnc(NC(=O)c2ccc(S(=O)(=O)NC3CCCCC3)cc2)s1	-4%	0.72	0.3	-2	0.4	1.0	1.4
O=c1c(Cc2ccc(Cl)cc2Cl)c(O)ccn1Cc1ccncc1	.	0.69	0.4	-3	-1.9	3.1	-0.5
CN1C(=O)CC(Sc2ncccc2C(=O)O)C1=O (stereo unspecified)	-3%	0.62	-0.1	0	-0.2	0.1	1.4
Cc1cccc(/C=C(\C#N)C(=O)Nc2ccccn2)c1	.	.	-0.1	8	.	7.3	-2.9
COC(=O)Cn1c(C)nc2c(sc3nc(C)cc(C)c32)c1=O	28%	0.71	-0.8	-8	3.1	0.8	0.5
Cc1ccc(C2=NOC(C)(c3nnc(-c4ccc(Cl)cc4)o3)C2)cc1 (stereo unspecified)	1%	0.67	-0.5	2	-0.3	-4.5	36*
O=C(CC1C(=O)NCCN1Cc1ccccn1)NCCc1ccccc1F (stereo unspecified)	5%	0.75	-1.1	3	0.5	-3.7	0.3
O=C(CSc1nnc(C2CC2)n1-c1ccccc1)NCc1ccco1	9%	0.74	0.4	-1	0.1	3.6	-0.4
Cc1ccc(NC(=O)Cn2nnc(C(=O)NCc3cccs3)c2N)cc1F	.	0.68	1.1	0	6.2	-1.7	1.3
C=CCNC(=O)CSc1ccc(Cl)cc1	0%	0.71	-0.6	-6	6.5	4.1	-3.3
CC1CCN(C(=O)COC(=O)c2ccccc2NC(=O)c2ccco2)CC1	-3%	0.68	1.5	1	-25	-3.3	1.1
O=C(COC(=O)CNC(=O)c1cccc([N+](=O)[O-])c1)Nc1nc2ccccc2s1	29%	0.72	-0.3	4	2.0	4.3	2.3
Cc1ccc(/C=N/NC(=O)c2cc(-c3ccncc3)nc3ccccc23)o1	6%	.	.	10	.	.	-2.1
COc1cc(S(=O)(=O)N2CCC(N3CCCCC3)CC2)ccc1-n1cnnn1	3%	0.76	.	4	-3.1	.	0.1
O=C(NCC1CCCO1)C1CC(=O)N(C2CCCCCC2)C1 (stereo unspecified)	0%	0.66	0.4	-5	-1.8	-1.3	-0.4
CC(C)Oc1ccc(CC2CC(=O)NC2=O)cc1 (stereo unspecified)	0%	0.73	0.1	0	0.9	-2.1	3.2
COc1cccc(NC(=O)C(Sc2nc3ccccc3c(=O)n2CC(C)C)c2ccccc2)c1 (stereo unspecified)	14%	0.78	-1.2	2	1.7	-1.8	0.9
NS(=O)(=O)c1ccc2ccccc2c1	-9%	0.64	1.2	-1	1.7	7.1	-4.3
Cc1cc(C)n(-c2cc(N3CCN(C(=O)c4cccc(Br)c4)CC3)ccc2[N+](=O)[O-])n1	17%	0.71	-0.8	3	4.9	-2.8	3.2
O=C(CCl)Nc1cccc(CP(=O)(c2ccccc2)c2ccccc2)c1	12%	.	0.4	15	.	-1.6	0.4
CNc1snc(C)c1C(=O)OC(C)C(=O)Nc1cccc(OC)c1 (stereo unspecified)	.	0.68	-0.6	-2	0.4	1.6	2.2
COCCNC(=O)CSc1ccccc1C(=O)NC1CCSc2ccccc21 (stereo unspecified)	.	0.61	-0.2	-3	-16	1.1	-2.9
O=S1(=O)NC(=NCC(c2ccco2)N2CCCCC2)c2ccccc21 (stereo unspecified)	.	0.65	0.1	-6	-0.9	-2.1	2.7
CCOC(=O)[C@H]1[C@H]2COc3cc(OC)ccc3[C@@H]2N2C(=O)N(c3ccc(Cl)cc3)C(=O)[C@@]12C	.	.	1.6	7	4.2	-3.7	0.1
COc1ccc2oc(C(=O)OCC(=O)N(Cc3ccccc3)C(C)(C)C)c(C)c2c1	-2%	0.71	0.1	20	-15	-1.4	0.0
CC(=O)CSc1ncnc2sc3c(c12)CCC3	3%	0.72	0.9	2	-0.9	-2.0	-2.1
Cc1ccc(CNC(=O)c2cc(-c3cc(C)cc(C)c3O)n[nH]2)cc1	1%	0.7	-0.7	1	0.9	-1.4	-1.9
O=C(/C=C/c1ccccc1)c1c[nH]c2ccccc12	0%	0.66	-5.0	4	3.8	1.0	1.3
COc1cc(CN2CCC(Cc3ccccc3)CC2)cc([N+](=O)[O-])c1O	.	0.68	-0.3	8	7.4	20*	0.9
COc1cccc(NC(=O)c2nn(C)c(C(=O)Nc3cccc(OC)c3)c2[N+](=O)[O-])c1	.	0.66	0.1	8	0.7	-1.8	1.0
COc1ccc(C(CNC(=O)c2cc(S(=O)(=O)N3CCCC3)ccc2Cl)N2CCCC2)cc1 (stereo unspecified)	-3%	.	-0.9	-6	.	1.7	4.2
COCCCn1c(-c2ccco2)nc2ccccc2c1=O	3%	0.73	0.0	-12	5.1	2.9	2.0
CCOc1cc(/C=N/NC(=O)c2nn(C)cc2Br)ccc1OCc1ccccc1Cl	3%	.	0.7	19	.	0.7	-1.0
CCOc1ccc(C(=O)Cn2cnc3ccccc3c2=O)cc1	.	0.68	-1.6	0	3.1	-1.1	3.4
Cc1cc(NS(=O)(=O)c2ccc(NC(=O)CSc3nc4ncc(Cl)cc4[nH]3)cc2)nc(C)n1	-4%	.	0.3	-4	.	0.1	5.2
COc1ccc(Cl)cc1C(=O)Nc1ccc(NC(=O)c2ccco2)cc1	25%	0.71	0.1	-6	-30	1.3	-2.6
O=C(C[C@@H]1C/C=C/CC[C@@H](Cc2ccc(F)cc2)C(=O)OCCNC1=O)N[C@H](CO)Cc1ccccc1	.	.	0.7	4	0.1	-2.1	-1.9
CCn1c(C)nc2cc(C(=O)N3N=C(CCOC)CC3(O)C(F)(F)F)ccc21 (stereo unspecified)	.	0.74	-0.7	-3	-1.2	2.2	-4.6
CC(C)(C)c1ccc(NC(=S)NCCc2ccccn2)cc1	-9%	0.7	0.3	1	6.8	4.7	5.0
Cc1cccc(NC(=O)c2ccc(-n3cncn3)c([N+](=O)[O-])c2)c1	9%	0.66	-3.5	-1	4.7	0.3	1.1
Cc1ccc(C(c2sc3nc(C)nn3c2O)N2CCN(c3ccccc3)CC2)cc1 (stereo unspecified)	21%	0.71	0.1	3	0.2	3.2	-0.1
N=C(N)c1ccccc1	5%	0.67&0.71	0.1&0.0	-6&-5	-1.5&1.1	-9.7&1.4	2.8&-1.7

Of the compounds above, these contain two or more sulfur atoms.
SMILES	Vif A3G	Ecoli growth	Bfl-1 A1 inh	Beta2AR agonist	UCH37 inh	LANA-H2A inh	HNF4A DNA FP
CCc1nnc(NC(=O)c2ccc(S(=O)(=O)NC3CCCCC3)cc2)s1	-4%	0.72	0.3	-2	0.4	1.0	1.4
COCCNC(=O)CSc1ccccc1C(=O)NC1CCSc2ccccc21 (stereo unspecified)	.	0.61	-0.2	-3	-16	1.1	-2.9
CC(=O)CSc1ncnc2sc3c(c12)CCC3	3%	0.72	0.9	2	-0.9	-2.0	-2.1
Cc1cc(NS(=O)(=O)c2ccc(NC(=O)CSc3nc4ncc(Cl)cc4[nH]3)cc2)nc(C)n1	-4%	.	0.3	-4	.	0.1	5.2

New compounds follow.
SMILES	Vif A3G	Ecoli growth	Bfl-1 A1 inh	Beta2AR agonist	UCH37 inh	LANA-H2A inh	HNF4A DNA FP
COc1cccc(C(Nc2ccccn2)c2c(NC(=O)c3ccco3)sc(C)c2C)c1 (stereo unspecified)	3%	0.73	0.8	2	1.4	4.5	0.3
Cc1cccc(NC(=S)Nc2ccc3cn[nH]c3c2)c1	15%	0.66	0.0	-10	0.5	1.4	2.1
Cc1ccc2c3c1C1(C(=O)N3C(C)(C)CC2C)C(C#N)=C(N)Oc2cc(O)ccc21 (stereo unspecified)	5%	0.66	0.2	4	5.9	-0.3	-4.4
Cc1c(NC(=O)CSc2ncccn2)c(=O)n(-c2ccccc2)n1C	-10%	0.65	2.6	-1	-0.2	-1.0	-3.9
O=C(COC(=O)Cc1ccccc1F)Nc1cccc(F)c1	-14%	0.68	0.2	13	1.9	-0.8	0.3
CCN(CC)C(=O)COc1ccc2c3c(c(=O)oc2c1C)CCCC3	.	0.63	?	-4	-83	-6.2	0.8
COc1ccc([N+](=O)[O-])cc1NC(=O)CSc1ncccn1	.	0.67	-0.3	-6	5.1	4.7	-1.8
CCc1ccc(NC(=S)NNC(=O)c2ccccc2OC(F)F)cc1	9%	0.73	1.3	.	3.8	-2.3	.
COCCCNC(=O)C[C@H]1C[C@H](C(=O)N(C(C)C)C(C)C)[C@@]2(C)c3[nH]c4cc(CCC(=O)N(C)C)ccc4c3CCN2C1=O	1%	0.65	.	-9	0.1	.	2.4
COc1ccc(C(=O)N2CCc3cc(OC)c(OC)cc3C2c2ccc(OC)c(OC)c2)cc1 (stereo unspecified)	4%	0.66	0.5	-31	3.1	-8.4	-0.8
Cc1ccc(OCCn2c(CCNC(=O)C(C)C)nc3ccccc32)cc1	5%	0.67	-0.3	-1	-1.4	-5.6	-2.4
O=C(NCCc1nc2ccccc2[nH]1)/C(=C/c1ccco1)NC(=O)c1ccccc1Br	31%	.	1.2	-14	.	14*	1.8
C/C(=N\NC(=O)CSc1nc2nc(C)cc(C)n2n1)c1ccccc1	15%	.	0.4	-10	.	0.2	0.1
COc1ccc(-c2sc3ccc(N4CCOCC4)cc3c2C#CCCO)cc1	.	0.71	-0.6	25	-8.6	4.8	0.7
COc1cc(C)c(CNc2cccc(C)c2)cc1C	12%	0.69	0.9	4	2.6	-0.2	-5.2
Cc1c(Cl)cccc1NC(CC(=O)c1ccccc1)C(=O)O (stereo unspecified)	9%	0.61	0.5	1	2.6	-3.3	-0.4
O=C(CSC1=NC2(CCCCCC2)N=C1c1ccccc1)Nc1ccc2c(c1)OCCO2	-9%	0.74	1.1	-19	4.9	-2.8	2.4
Cc1ccccc1OCC(=O)Nc1cccc(Cl)c1C	.	0.64	0.3	6	0.7	-1.8	-3.4
COc1ccc(-c2csc(Nc3ccccc3)[n+]2Cc2ccccc2)cc1	8%	0.69	-2.5	1	5.8	7.2	-3.7
CCOC(=O)N1C/C(=C\c2ccccc2)C(=O)/C(=C/c2ccccc2)C1	1%	0.71	.	35	5.3	.	-1.1
CCOc1cc(C)c(Cl)cc1S(=O)(=O)NC1CC(C)(C)NC(C)(C)C1	.	0.64	1.4	-5	1.4	-0.8	0.4
CC1(OC(=O)C2CCCC2)C(=O)C=C2C=C(c3ccsc3)N(CCc3c[nH]c4ccccc34)C=C2C1=O (stereo unspecified)	10%	0.68	-0.5	2	1.0	1.5	3.5
